miR-21 reporter – raises the signal of a miR-21 reporter; HeLa miR-21 FLuc reporter, luciferase, 48 h; Potency, µM (doses to about 38.3 µM), for inactives: at the top dose reporter change, positive = more light; 340,000 tested, under 10 active; AID 2288; active = well fitted rising curve with a large enough effect; inconclusive = small, poorly fitted or top-dose-only effect; inactive = no such curve, though single readings can be large or run the other way;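 note: % of control where 0% means no effect; miR-21 action dims this reporter so a rising signal means less miR-21 action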
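Compounds were titrated across several concentrations (up to approximately 40 uM) and incubated 48 hours with HeLa miR-21-FLuc reporter cells (miR-21 target sequence downstream of FLuc, endogenous miR-21). Readout was firefly luciferase luminescence after lytic detection reagent.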
Rango release inh – inhibitors of RanGTP-induced Rango-importin beta complex dissociation | 340,000 compounds, 0.071% hits | Potency, µM (top dose mostly 46.1 µM), for inactives: top-dose activity change, negative = inhibition | O95149+P62826 | Biochemical FRET Rango-importin beta, RanGTP-induced dissociation; active means falling FRET ratio curve, often poorly fitted, with flat reads before Ran was added; inconclusive means other falling curves, or compound fluorescence or quenching; inactive means flat or rising ratio curve;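 note: potency is the fitted concentration of half-maximal effect; % of control where 0% means no effect; nearly all actives have a fitted effect of over 45% in size; -100% = wells without RanGTP and RCC1; the record marks most hits as doubtful in a second field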
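Compounds sat 5 min at room temperature with 0.1 uM Rango biosensor plus 0.25 uM importin beta, then FRET pre-read. RanGTP-RCC1 (0.6 uM Ran, 2mM GTP, 0.2 uM RCC1) added for 45 min, and the CFP/YFP post-read measured blocked complex dissociation.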
GLA inh pH 4.5 – inhibitors of human alpha-galactosidase A at pH 4.5. P06280. purified enzyme, 4-MU-alpha-Gal fluorescence, pH 4.5. activity change, negative = inhibition, % at 105 µM. 230,000 tested, under 10 active; inconclusive = small, poorly fitted or top-dose-only inhibition, or a rising curve; inactive = flat fitted curve, though single readings scatter; no compound was filed as active;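 note: 0% = full activity with enzyme and -100% = basal without enzyme; dose as in the result columns while the protocol names 77 µM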
Target sequence (P06280 whole entry, looked up): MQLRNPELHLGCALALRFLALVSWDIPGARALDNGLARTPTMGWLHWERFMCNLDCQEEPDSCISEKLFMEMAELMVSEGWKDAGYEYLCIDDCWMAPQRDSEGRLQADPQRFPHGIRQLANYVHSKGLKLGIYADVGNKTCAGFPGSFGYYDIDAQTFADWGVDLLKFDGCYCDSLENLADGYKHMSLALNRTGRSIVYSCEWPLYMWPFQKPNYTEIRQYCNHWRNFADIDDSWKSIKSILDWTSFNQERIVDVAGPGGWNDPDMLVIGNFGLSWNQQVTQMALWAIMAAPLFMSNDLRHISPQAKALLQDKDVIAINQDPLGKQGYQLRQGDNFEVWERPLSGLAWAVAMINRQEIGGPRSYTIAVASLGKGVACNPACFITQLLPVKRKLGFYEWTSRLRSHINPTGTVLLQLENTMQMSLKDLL
Rango complex inh – Rango-importin beta binding inhibition | Q14974 | Rango CFP/YFP FRET sensor + importin beta, 45 min | Potency, µM (titrated, usually from 92.2 µM), for the others: top-dose inhibition of complex formation | 340,000 compounds, 0.031% hits; active = rising FRET ratio curve, often small or poorly fitted; inconclusive = mostly compound fluorescence or quenching in the first reads; inactive = flat curves in all reads;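 note: potency is the fitted concentration of half-maximal effect; 0% = DMSO wells and 100% = buffer wells lacking importin beta; nearly all actives have a fitted effect of over 15% in size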
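Inhibition scored from the CFP 486 nm/YFP 530 nm FRET ratio 45 min after adding 0.125 microM importin beta to 50 nM Rango biosensor preincubated 5 min with compound (room temperature, PBS with DTT, Tween-20, BSA). No-importin wells as positive control.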
An asterisk follows results filed as active; ? = inconclusive; · = not tested or not shown. The list is partial (hit frequency here may not be typical).

miR-21 reporter	Rango release inh	Rango complex inh	GLA inh pH 4.5	Molecule
-8%	15%	1.6%	·	COc1ccc(C(=O)N2CCCC(CNC(=O)c3ccc(F)cc3)C2)cc1OC (stereo unspecified)
-5%	1%	-0.9%	-7	C/C(=N\S(=O)(=O)c1ccc(C)cc1)N1CCN(S(=O)(=O)c2ccccc2)C1
2%	0%	-1.1%	-5	C[n+]1cccc2c(Br)ccc([O-])c21
·	0%	2.2%	·	O=C(OCC(=O)N1CCCC1=O)c1cc(S(=O)(=O)N2CCOCC2)ccc1F
-29%	1%	2.5%	-4	N#CCSc1nnc(COc2ccc3ccccc3c2)o1
·	13%	1.0%	·	O=C(COC(=O)C1CCC1)Nc1cc(S(=O)(=O)N2CCCCC2)ccc1Cl
-11%	9%	0.0%	1	NNC(=O)c1csc(-c2ccc(C(F)(F)F)cc2Cl)n1
-2%	12%	-1.9%	-20	CCc1ccc(-n2c(SCc3c(C)noc3C)nnc2-c2ccncc2)cc1
-3%	2%	0.5%	·	COc1cccc(-c2nc(CS(=O)(=O)CC(=O)NC3CCCCC3C)c(C)o2)c1 (stereo unspecified)
-6%	-6%	3.7%	6	CNC(=O)CN1C(=O)CSc2nc(C)cc(C)c21
-12%	-13%	1.6%	-3	CSc1nc(-c2ccc(C)cc2)nc(N)c1C#N
0%	5%	-3.2%	·	CCn1nc(C)cc1C(=O)N1CCCC(Nc2ccc(C(C)C)cc2)C1 (stereo unspecified)
-18%	23%	-0.7%	-7	O=c1[nH]ncc(N/N=C\c2ccncc2)c1Cl
-3%	2%	4.3%	-7	O=C(NCc1ccccc1Cl)C1CC(=O)N(Cc2ccccc2)C1 (stereo unspecified)
-34%	8%	-2.8%	·	CC1(C)Cc2c(cnn2-c2ccc(F)cc2)C(NC(=O)C2=NNC(=O)CC2)C1 (stereo unspecified)
-14%	0%	1.8%	-4	COC(=O)c1ccc(Oc2nc(NC(C)C)nc(SC)n2)cc1
-6%	8%	-0.7%	-4	c1ccc(CCC2CCCCN2Cc2cn[nH]c2-c2cc3ccccc3o2)nc1 (stereo unspecified)
-2%	3%	9.0%	8	O=C(CSc1nnc2scc(-c3ccc(Cl)cc3)n12)NCc1ccc2c(c1)OCO2
4%	1%	-4.0%	2	CCCc1cc(=O)[nH]c(SCC(=O)Nc2ccc(Br)cc2)n1
-1%	3%	?	-6	COc1ccc(CNc2nc3nc(C)c(Cl)c(=O)n3[nH]2)cc1
-7%	8%	-0.3%	7	O=C(c1c(F)cccc1F)N1CCN(c2cccc(C(F)(F)F)c2)CC1
1%	?	?	·	Oc1c(Cl)cc(Cl)cc1/C=N/c1ncn[nH]1
0%	9%	0.3%	-23	COc1ccc(-c2nnc3ccc(SCC(=O)NCc4ccco4)nn23)cc1
0%	11%	4.9%	·	COc1ccc(C(=O)Cn2cc[n+](C)c2)cc1

Quoted from the listing.
Value for COc1ccc(C(=O)Cn2cc[n+](C)c2)cc1 in Rango release inh: 11%
Value for O=C(c1c(F)cccc1F)N1CCN(c2cccc(C(F)(F)F)c2)CC1 in Rango release inh: 8%
Value for O=C(CSc1nnc2scc(-c3ccc(Cl)cc3)n12)NCc1ccc2c(c1)OCO2 in Rango release inh: 3%
Value for CCCc1cc(=O)[nH]c(SCC(=O)Nc2ccc(Br)cc2)n1 in GLA inh pH 4.5: 2
Value for Oc1c(Cl)cc(Cl)cc1/C=N/c1ncn[nH]1 in miR-21 reporter: 1%

Remaining list, next part.
miR-21 reporter	Rango release inh	Rango complex inh	GLA inh pH 4.5	Molecule
-7%	4%	-0.2%	-5	CC(C)c1ccc(NC(=O)C2C3C=CC4(CN(Cc5cccnc5)C(=O)C24)O3)cc1 (stereo unspecified)
1%	-4%	-6.6%	0	COc1ccc(CC(=O)Nc2c3c(nn2-c2cccc(C)c2C)CS(=O)C3)cc1OC (stereo unspecified)
1%	-20%	-1.1%	3	COCCN(Cc1cc2cc3c(cc2nc1Cl)OCO3)C(C)=O
-1%	1%	-4.6%	-7	Cn1c(=O)c2c(nc(SCCN3CCOCC3)n2Cc2ccccc2Cl)n(C)c1=O
-6%	-26%	1.4%	-1	COc1ccc(CC2(CO)CCN(Cc3ccc4c(c3)CCO4)CC2)cc1
3%	?	?	7	CCCOc1c(Br)cc(C2C3=C(CCCC3=O)N(CC)C3=C2C(=O)CCC3)cc1OC
9%	0%	-0.1%	·	Cc1ccccc1CNC(=O)CN(c1ccccc1Cl)S(C)(=O)=O
-1%	-20%	-1.4%	·	O=C(Nc1ncccn1)C1=C(O)c2ccccc2S(=O)(=O)N1Cc1ccccc1
4%	-9%	-2.8%	3	CC1=NN(Cc2ccccc2)C(=O)C1C(c1ccc(Cl)cc1)C(C#N)C#N (stereo unspecified)
-16%	2%	1.7%	·	Cc1cc(C)nc(NC(=O)c2ccc(C)c(C)c2)n1
·	-29%	7.0%	·	COc1ccc(C(=O)Nc2c(N)nc[nH]c2=O)cc1
·	16%	-3.4%	·	CSCCC(NC=O)C(=O)NC(C)C(=O)O (stereo unspecified)
-6%	1%	0.1%	-6	NC(=O)N/N=C/c1cccc(C(F)(F)F)c1
1%	1%	-1.9%	0	O=C(c1cccnc1)C1CCCN(Cc2nc(Cc3ccccc3F)no2)C1 (stereo unspecified)
-4%	0%	-1.0%	-4	O=C(Nc1ccccn1)c1ccc(=O)[nH]n1
-6%	-6%	-1.6%	-26	COc1ccc(-c2nnc(CSc3nc4ccccc4c(=O)n3CC3CCCO3)o2)cc1OC (stereo unspecified)
·	-5%	-0.3%	·	CCC(C)(CN(C)C)OC(=O)c1ccccc1 (stereo unspecified)
-1%	1%	1.0%	-4	CCCN(CCC)S(=O)(=O)c1ccc(C(=O)Nc2cc3oc4ccccc4c3cc2OC)cc1
·	14%	0.6%	·	CC1CCCC(C)N1C(=O)COc1cccc(Oc2ccccc2)c1 (stereo unspecified)
-6%	2%	3.7%	·	Cc1cc2oc(=O)cc(CN3CCCCC3C)c2cc1Cl (stereo unspecified)
-26%	3%	-1.6%	·	O=C(Nc1ccc(Nc2ccccc2)cc1)c1ccc(F)cc1
2%	-8%	0.1%	·	CCOC(=O)N1CCN(S(=O)(=O)N2CCCC(C(=O)NCc3ccc(F)cc3)C2)CC1 (stereo unspecified)
0%	4%	0.0%	·	Cc1ccc(S(=O)(=O)NCC(=O)N(CC(=O)NC2CCCC2)CC2CCCO2)cc1 (stereo unspecified)
8%	-12%	-0.9%	-8	COc1ccc(NC(=O)COC(=O)CCCOc2ccc(Cl)cc2Cl)cc1Cl
-5%	1%	1.8%	5	COc1cccc(NC(=S)NCCN2CCOCC2)c1
-52%	0%	1.9%	5	O=C1NCC2=C1C(c1ccc(Br)cc1)Nc1ccccc1N2 (stereo unspecified)
-1%	-9%	-3.2%	·	C[C@H](NC(=O)[C@@H]1Cc2ccccc2CN1C(=O)OC(C)(C)C)C(=O)NCc1ccco1
·	0%	0.3%	·	COC(=O)c1ccccc1NC(=O)Cn1cnc2c(cnn2-c2ccc(C)c(C)c2)c1=O
13%	-7%	-6.1%	-1	Cn1c(CS(=O)Cc2c(Cl)cccc2Cl)nnc1SCc1ccc(Cl)cc1 (stereo unspecified)
2%	?	?	-4	COCC(C)OC(=O)C(C#N)c1nc2ccccc2nc1N1CCN(Cc2ccccc2)CC1 (stereo unspecified)
3%	20%	-0.7%	-3	Nc1nc(-c2ccccc2)c(N=Nc2cccc3ccccc23)s1
-1%	0%	-2.7%	·	COc1ccc(C2N(C(=O)CN3CCCC3)CCCN2S(=O)(=O)c2ccccc2)cc1 (stereo unspecified)
·	5%	-2.5%	·	Cc1ccn2c(NC3CCCCC3)c(-c3cccc(SC4CCCCC4)c3)nc2c1
-3%	0%	-3.9%	12	O=C1CC(c2ccccc2)c2c(O)cc(O)cc2O1 (stereo unspecified)
-59%	9%	-3.2%	-1	CCOC(=O)Nc1nc2ccccc2s1
0%	-9%	-1.5%	·	CCc1nnc(NC(=O)CCC(=O)NCc2ccccc2Cl)s1
·	5%	2.0%	·	O=C(COC(=O)Cc1ccc(Cl)cc1)NCc1ccc(F)cc1
-9%	-23%	-0.7%	1	Cc1cc(Cl)ccc1OCCn1cncn1
-7%	4%	0.7%	·	CCN(CCCC(=O)c1ccc(F)cc1)CCc1ccccc1
-12%	6%	9.0%	-2	COc1ccc([N+](=O)[O-])cc1NS(=O)(=O)c1cc(C(=O)O)ccc1OC
-2%	1%	3.7%	4	Cc1c(NC(=O)CSc2nnc(-c3cccc(Cl)c3)o2)c(=O)n(-c2ccccc2)n1C
-22%	7%	-0.4%	1	Cc1ccc(CNC(=O)CS(=O)(=O)c2ccccc2)cc1
-5%	-4%	1.3%	·	CCC(=O)N1c2ccc(S(=O)(=O)N3CCN(C)CC3)cc2CC1C (stereo unspecified)
0%	27%	-0.3%	·	CCC(C)[C@H](NC(=O)N1CC(=O)Nc2ccccc21)C(=O)N1CCC(C(=O)O)CC1 (stereo partly specified)
-6%	13%	2.9%	-2	CN(C)C(=O)CSc1nnc(-c2ccc(F)cc2)c2ccccc12
-1%	9%	-3.1%	-5	Cc1cc(C2(c3ccc(O)c(C)c3)C(=O)Nc3ccccc32)ccc1O
-21%	-3%	-2.3%	9	Cn1cc(CCC(=O)N2CCCC(CCC(=O)NCc3ccc(F)c(F)c3)C2)cn1 (stereo unspecified)
0%	-11%	-4.5%	·	CC(C)c1ccc(NC(=O)CCNC(=O)Cn2ccc3ccccc3c2=O)cc1

4 structures out of the list, arranged by count of non-hydrogen atoms, falling:
miR-21 reporter	Rango release inh	Rango complex inh	GLA inh pH 4.5	Molecule
0%	27%	-0.3%	·	CCC(C)[C@H](NC(=O)N1CC(=O)Nc2ccccc21)C(=O)N1CCC(C(=O)O)CC1 (stereo partly specified)
0%	-11%	-4.5%	·	CC(C)c1ccc(NC(=O)CCNC(=O)Cn2ccc3ccccc3c2=O)cc1
-12%	6%	9.0%	-2	COc1ccc([N+](=O)[O-])cc1NS(=O)(=O)c1cc(C(=O)O)ccc1OC
-7%	4%	0.7%	·	CCN(CCCC(=O)c1ccc(F)cc1)CCc1ccccc1

Additional records follow.
miR-21 reporter	Rango release inh	Rango complex inh	GLA inh pH 4.5	Molecule
-22%	?	?	-7	CCOC(=O)Cc1c(C)c2ccc(N(CC)CC)cc2oc1=O
3%	0%	-2.1%	·	CS(=O)(=O)N(CC(=O)N1CCCC1)c1cc(Cl)ccc1Cl
3%	·	·	-4	COC(=O)/C(=C/c1cn(C)c2ccccc12)[N+](=O)[O-]
-7%	4%	2.7%	·	CSc1ccccc1OCc1cc(C(=O)NCCN2CCCC(O)C2)no1 (stereo unspecified)
-5%	0%	-0.7%	5	COc1cc(/C=N/OCC(=O)NC2CCS(=O)(=O)C2)ccc1OC(F)F (stereo unspecified)
0%	-3%	-0.1%	·	O=C(CSc1nnc(CNC(=O)c2ccco2)o1)Nc1ccc(F)cc1F
0%	1%	5.5%	1	CSCC(CO)NS(=O)(=O)c1ccc(C)cc1 (stereo unspecified)
1%	9%	-0.6%	·	COc1ccc(OC)c(C(=O)c2ccccn2)c1
-2%	11%	2.6%	6	Cc1ccccc1NC(=O)/C(=C\c1cccs1)NC(=O)c1ccccc1
-2%	-12%	?	-4	CCOc1ccc(/C=N/OCC(=O)NCc2ccco2)cc1
-20%	3%	-0.1%	·	COc1ccc(CNC(=O)Cc2cccs2)cc1OC
-52%	-4%	-2.8%	0	Cc1cc(C)n2c(Br)c(CSc3nc4ccccc4o3)nc2n1
·	-26%	?	·	CC(C)(C)CC(C)(C)Nc1c(-c2ccc(O)cc2)nc2cnccn12
-3%	-20%	0.5%	·	CC(=O)Nc1cccc(NC(=O)Cc2cccs2)c1
1%	-8%	-1.3%	-11	COc1cc(Br)cc(CNc2ccc(F)c([N+](=O)[O-])c2)c1O
-8%	1%	0.8%	-16	COC(=O)c1ccc(NC(=O)CN2C(=O)C3C4C=CC(C4)C3C2=O)cc1 (stereo unspecified)
-1%	-16%	0.3%	3	Cc1ccc(C(=O)N2CC(=O)Nc3ccc(F)cc3C2c2ccc(F)cc2)cc1[N+](=O)[O-] (stereo unspecified)
-3%	-3%	8.9%	-14	O=C(CCCn1nnc2ccccc2c1=O)N[C@H](C(=O)O)c1ccccc1
-22%	6%	-3.6%	9	O=C(CCC1N=C2c3ccccc3N=C(SCC(=O)NCc3ccco3)N2C1=O)NCc1ccco1 (stereo unspecified)

Screening results: PubChem BioAssay, National Center for Advancing Translational Sciences (NCATS)
